Mtb betalactam = beta-lactam sensitization of Mtb H37Rv; inhibition, % at 25 µM; 330,000 tested, 0.27% active; M. tuberculosis H37Rv growth with meropenem, percent inhibition; hits of this screen are not shown here;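 active = about 74% or more and at least 40 points above the plate without the antibiotic, then above 30% in a dose series; inconclusive = first-round hits that could not be retested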;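 also: growth measured after seven days incubation then overnight dye step; 0% = bacteria only wells and 100% = bacteria with antibiotic; twin plates without the antibiotic show which effects depend on it; some results filed as inactive read as strong as hits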
Arbovirus inh = antivirals against arbovirus infection; arbovirus infection cell-based antiviral screen; inhibition, % at 10 µM; 200,000 tested, 0.37% active;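 active = inhibition from about 30%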;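 also: bluetongue infection of BSR cells; cell survival read as ATP light after 72 h; 0% = infected wells without compound and 100% = uninfected wells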
RecA splice inh = Mtb RecA intein splicing inhibition; inhibition, %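 (about 9 µM by stock and volumes)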; 290,000 tested, 0.75% active; P9WHJ3; cell-free RecA intein splicing, fluorescence; AID 2221; in the data active = inhibition above about 30%; inconclusive = no clear call, values can overlap the other calls;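 also: 0% = vehicle wells and 100% = reference inhibitor control wells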
Target sequence (P9WHJ3 whole entry, looked up, canonical isoform): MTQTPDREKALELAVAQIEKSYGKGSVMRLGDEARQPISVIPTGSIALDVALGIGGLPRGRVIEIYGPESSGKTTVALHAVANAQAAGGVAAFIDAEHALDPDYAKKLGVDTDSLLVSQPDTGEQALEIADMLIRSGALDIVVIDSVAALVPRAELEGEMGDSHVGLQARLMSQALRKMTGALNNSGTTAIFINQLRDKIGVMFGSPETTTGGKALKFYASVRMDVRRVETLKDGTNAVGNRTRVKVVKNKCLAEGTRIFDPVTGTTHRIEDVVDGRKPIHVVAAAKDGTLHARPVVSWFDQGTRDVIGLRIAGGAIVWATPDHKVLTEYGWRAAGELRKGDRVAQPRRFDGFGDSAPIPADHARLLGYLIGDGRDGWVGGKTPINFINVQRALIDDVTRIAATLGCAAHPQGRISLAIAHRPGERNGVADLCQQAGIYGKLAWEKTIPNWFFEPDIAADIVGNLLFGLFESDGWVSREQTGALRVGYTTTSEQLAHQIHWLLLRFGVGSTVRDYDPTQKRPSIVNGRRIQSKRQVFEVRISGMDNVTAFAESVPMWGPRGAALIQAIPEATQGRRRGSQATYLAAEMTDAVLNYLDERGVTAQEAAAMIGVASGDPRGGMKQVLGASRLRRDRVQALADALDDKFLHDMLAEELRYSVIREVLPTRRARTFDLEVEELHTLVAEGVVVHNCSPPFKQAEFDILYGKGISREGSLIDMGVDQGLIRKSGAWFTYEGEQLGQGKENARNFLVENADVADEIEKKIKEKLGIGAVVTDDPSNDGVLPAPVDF
Mtb growth = M. tuberculosis H37Rv growth inhibitors, H37Rv strain (AID 1626) | inhibition, % at 10 µM, or IC50 in µM where a hit was titrated | 220,000 tested, 0.95% active | M. tuberculosis H37Rv growth inhibition; higher % means a stronger effect;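 active = confirmed in a dose series; inconclusive = inhibition above 80% but not taken into the dose series; inactive = below 80% or under 30% at every dose of the series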;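 also: bacteria incubated seven days before Alamar blue readout; 0% = bacteria only wells and 100% = bacteria with antibiotic wells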
YopH PTP inh = blocks Yersinia enterocolitica YopH tyrosine phosphatase; inhibition, %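 (about 10 µM by stock and volumes)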; fluorescence Ex485/Em525; 140,000 tested, 0.16% active;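 active = inhibition of 50% or more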;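 also: controls were vehicle for no effect and minimum signal wells for full effect; inactives centre near -20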
Arbovirus inh repeat = second read-out of Arbovirus inh, no call of its own (marks repeat the call); inhibition, %; measured here: 10K subset replicate screen; many hits read low in the repeat;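 first of two repeat runs on a subset; 0% = infected and 100% = uninfected wells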
* = called active by the depositor; ? = inconclusive; . = no result given. This is a subset; the hit share may differ from the screen's.

SMILES	Mtb betalactam	Arbovirus inh	RecA splice inh	Mtb growth	YopH PTP inh	others
CN(CC(CC(=O)O)c1ccccc1)S(=O)(=O)c1ccc(Br)cc1 (configuration not stated)	2.0	6.4	-0.8	-6.8%	-40.9
CC(=O)c1cc(C#N)c(N2CCOCC2)nc1C	-2.5	1.7	-0.6	0.4%	.
CCOC(=O)Cn1nnnc1CN(CCc1ccccc1)Cc1cc2cc(CC)ccc2[nH]c1=O	-1.3	7.6	13.8	3.1%	2.1
O=C(Nc1ccccc1)[C@@H]1[C@@H]2C(=O)N(c3ccc(F)cc3)C(=O)[C@@H]2[C@H]2C=CC=NN21	-5.1	.	.	6.9%	.
O=C(COc1ccc([N+](=O)[O-])cc1)Nc1cc(S(=O)(=O)N2CCCCC2)ccc1N1CCCCC1	-3.4	.	1.3	.	.
O=C(Nc1ccccc1Oc1ccccc1)c1ccc(Br)o1	35.4	6.5	14.8	6.6%	5.1
COc1ccc(-c2cc(C(=O)NCC3CCCO3)c3cc(C)ccc3n2)cc1 (configuration not stated)	-4.9	-2.0	9.1	10.5%	.
Nc1nc(Cl)cc(Sc2ccc(F)cc2)n1	0.4	6.0	2.2	4.3%	-14.8
Cc1ccc(Cl)cc1N1CCN(C(=O)c2cc3c(=O)[nH]c4ccccc4c3n2C)CC1	32.5	-8.5	-0.1	48.2%	-15.5
CCN1C(=O)/C(=C\N2CCN(c3cccc(Cl)c3)CC2)SC1=S	-4.9	-16.2	0.9	13.4%	-35.0
O=c1[nH]c2cc3c(cc2cc1C(c1nnnn1Cc1ccccc1)N1CCCCCC1)OCCO3 (configuration not stated)	1.4	3.8	-2.9	-22.4%	-4.6
O=C(Nc1nncs1)C1(c2ccccc2)CCCC1	-0.9	8.0	1.5	-8.6%	-29.3
CCOc1cc(NC(=O)c2cccs2)c(OCC)cc1NC(=O)CCC(=O)NCCN1CCOCC1	1.5	-0.1	0.5	-0.9%	.
COc1ccc(CCC(=O)Nc2ccc(Cn3ccnc3)cc2)cc1	4.5	.	0.3	.	.
Cc1ccc(N2C(=O)N(CC(=O)c3cc(C)ccc3C)C(=O)C2C)cc1 (configuration not stated)	-1.1	-4.5	3.9	1.8%	-25.3

Grouped by structure: the compounds so far with a Cl atom.
SMILES	Mtb betalactam	Arbovirus inh	RecA splice inh	Mtb growth	YopH PTP inh	others
Nc1nc(Cl)cc(Sc2ccc(F)cc2)n1	0.4	6.0	2.2	4.3%	-14.8
Cc1ccc(Cl)cc1N1CCN(C(=O)c2cc3c(=O)[nH]c4ccccc4c3n2C)CC1	32.5	-8.5	-0.1	48.2%	-15.5
CCN1C(=O)/C(=C\N2CCN(c3cccc(Cl)c3)CC2)SC1=S	-4.9	-16.2	0.9	13.4%	-35.0

(cont.)
SMILES	Mtb betalactam	Arbovirus inh	RecA splice inh	Mtb growth	YopH PTP inh	others
Cc1ccccc1N=C/C=C1\N(C)c2ccccc2C1(C)C	7.4	6.4	-3.5	-0.1%	-11.1
COc1ccc(OC)c(NC(=O)Cn2cc(C(=O)c3ccco3)c3ccccc32)c1	3.4	2.8	1.1	2.9%	16.9
O=C(O)CCc1ccc(-c2ccc(Cl)cc2)n1Cc1ccco1	6.6	14.9	0.5	-4.8%	-12.7
C=CCNC(=O)c1c2c(nc3ccccc13)-c1ccccc1CC2	0.1	13.6	-2.0	-3.6%	-27.3
C/C(=N\NC(=O)c1ccncc1)c1cccs1	98.7	-0.8	-0.7	?	.
CCOc1ccc(-c2nc(CN3CCCCC3CCn3cccn3)c(C)o2)cc1 (configuration not stated)	-4.2	.	0.1	4.5%	.
O=C(CNC(=O)c1ccc(S(=O)(=O)N2CCCC2)cc1)N/N=C/c1c(Cl)cccc1Cl	-14.0	0.2	4.8	-6.2%	-28.8
NS(=O)(=O)c1ccc(NC(=O)COC(=O)C2CC(=O)N(Cc3ccccc3)C2)cc1 (configuration not stated)	5.8	14.4	-0.5	-1.1%	.
CCOc1ccc(C(=O)Nc2ccc(C(=O)N3CCOCC3)cc2)c(OCC)c1	21.4	.	0.1	.	.
O=[N+]([O-])c1ccc2nc(-c3ccccc3)cc(-c3ccccc3)c2c1	-5.2	-12.0	4.1	-0.8%	-8.3
COc1cc2c(=O)n(CC3CCCO3)c(=O)n(CC(=O)Nc3ccccc3)c2cc1OC (configuration not stated)	-5.0	.	-1.7	.	.
Cc1cc(C(=O)N[C@@H](c2ccccc2)[C@]2(C)C[C@H]2[C@@H](C)C(=O)Nc2ccc3ccccc3c2)no1	-2.8	-18.9	4.0	5.7%	-27.4
Cc1ccc(C(=O)Nc2cccc(C(=O)N3CCN(C)CC3)c2)cc1	.	3.6	1.3	-4.9%	-11.5
COc1ccc(OC)c(NC(=O)Cc2csc(NC(=O)Nc3ccccc3OC)n2)c1	-2.9	.	10.4	.	.
Cc1ccc2nc3c(cc(C(=O)NC4CCCC4)c(=N)n3C3CCCCC3)c(=O)n2c1	7.2	.	-396.2	.	.
O=C(N/N=C/c1ccccc1)C(O)c1ccccc1 (configuration not stated)	-1.9	.	-2.8	.	.
Nc1ccc(N2CCOCC2)c(S(=O)(=O)Nc2cc(Cl)ccc2Cl)c1	-1.4	13.0	0.2	-7.9%	.
O=C(COc1ccccc1)NC1CCCCC1	-5.5	-1.6	0.9	1.1%	-35.5
COc1nc2c(s1)C(=O)NCCC2	-3.9	-3.9	-2.7	-8.3%	5.3
Cc1c(NC(=O)COc2ncnc3ccccc23)c(=O)n(-c2ccccc2)n1C	2.9	2.3	2.1	-0.8%	-29.2
COc1ccc(C2NN=C(c3ccc(C)cc3)S2)cc1 (configuration not stated)	65.5	.	1.5	.	.
COc1cccc(/C=C/C(=O)NCc2ccc3c(c2)OCO3)c1	-1.6	.	7.5	.	.
Cn1c(=O)c2c(nc(CN3CCOCC3)n2CC(=O)c2ccccc2)n(C)c1=O	25.7	.	2.2	-10.9%	-14.5
Cc1cc(C(=O)O)cc(Br)c1N	-1.4	-1.9	0.1	3.6%	.
CCNc1nc(NCC)nc(NC(N)=S)n1	-3.2	-2.6	3.2	-4.3%	.
CCC/C(=N\NC(=O)CCC(=O)NCc1ccccc1)c1ccccc1	-7.8	-5.9	-1.1	2.9%	.
Cc1ccc(NS(=O)(=O)c2c(C)[nH]c(=O)[nH]c2=O)c(Br)c1	3.1	.	-5.4	.	.
COc1ccc(/C=C(\NC(=O)c2ccccc2Cl)C(=O)NCCCC(=O)O)cc1	.	9.1	-2.4	1.2%	.
CC(=O)NC(CCS(C)(=O)=O)C(=O)Nc1ccc2c(c1)OCCO2 (configuration not stated)	0.7	13.1	-1.4	-4.7%	2.1
Nc1c(Cl)cnn(-c2ccccc2)c1=O	-7.8	.	0.3	.	.
COc1ccc(NC(=O)C2CCCC2)cn1	1.2	2.0	4.1	3.6%	.
CC(C)(C)P(=O)(c1ccncc1)N1CCCC1 (configuration not stated)	5.3	4.8	0.3	-8.0%	-60.0
CCOC(=O)CCC(=O)NNC(=O)c1ccc(NC(=O)c2ccccc2)cc1	-1.1	0.3	-5.6	-0.5%	.
COc1cc(/C=N/NC(=O)[C@H](Cc2c[nH]c3ccccc23)NC(=O)OCC(C)C)cc([N+](=O)[O-])c1O	11.8	9.1	-0.3	8.6%	-26.2
CCC1(C)Cc2ccccc2-c2nc[nH]c(=O)c21 (configuration not stated)	-5.0	.	1.8	.	.
CCOC(=O)c1ccc(-n2c(C)nc3c(cnn3-c3ccc(Cl)cc3)c2=O)cc1	-3.2	3.3	1.2	-3.7%	7.2
O=C(COC(=O)CCc1ccc(S(=O)(=O)N2CCCCC2)cc1)Nc1ccc2c(c1)OCO2	10.7	-13.8	0.7	5.7%	-37.8
CCOC(=O)CNC(=O)c1ccccc1Br	2.1	2.3	0.4	-3.2%	-30.4
Cc1ccc2c(c1)C1NC(=S)NC(C)(O2)C1C(=O)Nc1ccc(Cl)cc1 (configuration not stated)	-5.8	-8.0	1.8	3.0%	-12.2
C=CCNC(=O)C1CC2c3ccccc3C1c1ccccc12 (configuration not stated)	-3.8	.	-0.1	.	.
CCCCCCn1c(N2CCC(C(N)=O)CC2)nc2c1c(=O)[nH]c(=O)n2C	0.8	-2.5	3.1	-5.9%	-35.3
CC1C(=O)C(C)C(c2cccs2)NC1c1cccs1 (configuration not stated)	15.4	-0.8	0.5	-1.6%	-26.4	Arbovirus inh repeat=1.0
NC(=O)C1CCCN(C(=S)NCc2ccc3c(c2)OCO3)C1 (configuration not stated)	-1.5	17.6	1.6	6.9%	.
O=C(N1CCN(c2ccc(F)cc2)CC1)C1(c2cccs2)CCOCC1	5.8	8.2	1.2	-0.2%	-26.5
CCCNC(=O)c1cc(OC)c(OC)cc1[N+](=O)[O-]	-2.0	-2.9	-1.8	-1.9%	-1.4
CCOC(=O)CNC(=O)c1sc(NC(=O)c2ccccc2F)nc1C	-0.6	-24.1	-0.7	11.6%	-18.0
c1ccc(CSc2nnc(SCc3ccccn3)s2)nc1	7.8	5.3	-0.9	7.2%	-42.0
O=S(=O)(NNc1ccc(F)cc1F)c1cccc(Cl)c1	4.3	.	-1.9	.	.
CN1C(=O)N(C)C2(c3ccccc3)N(C(C)(C)C)C(=O)NC12c1ccccc1 (configuration not stated)	-4.7	-5.2	-0.1	-2.2%	-21.9
CN(Cc1ccccc1)C(=O)c1oc(=O)c2ccccc2c1-c1ccccc1	-3.7	14.9	8.0	-3.3%	-18.5
CC1CCCC(NC(=O)CN2C(=O)COc3ccccc32)C1C (configuration not stated)	-3.5	.	-1.0	.	.
O=C1CSC(c2ccccn2)N1c1ccc(F)cc1F (configuration not stated)	-15.9	6.8	0.6	4.1%	.
CS(=O)c1ccc(-n2c(=O)n(Cc3ccccc3)c(=O)c3[nH]cnc32)cc1 (configuration not stated)	3.4	.	-1.8	.	.
Cn1c(C(=O)N2CCC(C(N)=O)CC2)cc2cc(Cl)ccc21	-1.5	.	-0.4	.	.
O=C(COc1ccc(S(=O)(=O)Nc2cccc(C(F)(F)F)c2)cc1)N1CCOCC1	-15.4	.	1.2	.	.
O=C1NC(=S)N(c2ccccc2)C(=O)C1C(c1ccncc1)C1C(=O)NC(=S)N(c2ccccc2)C1=O (configuration not stated)	8.9	14.3	-2.1	0.1%	.
c1ccc2sc(N3CCN(Cc4nnnn4CC4CCCO4)CC3)nc2c1 (configuration not stated)	-14.2	2.8	0.3	-0.8%	-22.4
CCN(C(=O)c1ccco1)c1nc(-c2ccc(OC)cc2)cs1	77.6	.	7.5	.	.
O=S(=O)(Nc1ccc(Nc2ccccc2)cc1)c1ccc(F)cc1	7.1	.	10.3	.	.
COc1ccc(OC)c(NC(=O)CSc2ncccc2C(=O)O)c1	-0.4	12.1	12.3	5.1%	-32.9
Next entries:
SMILES	Mtb betalactam	Arbovirus inh	RecA splice inh	Mtb growth	YopH PTP inh	others
CCOC(=O)c1sc(-c2ccc(OC)cc2)cc1NC(C)=O	.	-1.4	-0.3	2.0%	-11.9
NS(=O)(=O)c1ccc(N=Nc2ccc(O)c3ncccc23)cc1	10.1	.	6.7	.	.
CC1CCN(CC(=O)Nc2ccc(C(=O)N3CCCCC3)cc2)CC1	0.2	.	0.2	.	.
CC(=O)c1cc2c(cc1NC(=O)Nc1cccc(Cl)c1)OCCO2	12.8	6.5	-143.2	10.2%	-2.9
CCNC(=O)C(=O)NCC1CCCN1S(=O)(=O)c1cccs1 (configuration not stated)	-5.8	.	-1.8	.	.
CC(=O)Nc1ccc2c(COC(=O)CC3Sc4ccccc4NC3=O)cc(=O)oc2c1 (configuration not stated)	4.9	-2.1	0.9	7.7%	.
Cc1cc(=O)oc2cc(NC(=O)c3ccc(OC(F)F)cc3)ccc12	1.5	.	-1.1	.	.
O=C(NCCCn1ccnc1)/C(=C/c1ccco1)NC(=O)c1cccs1	-2.0	8.1	-4.5	-3.8%	.
O=C(c1ccccc1)N(Cc1cccs1)C1CCS(=O)(=O)C1 (configuration not stated)	4.8	0.8	-0.2	-8.3%	-42.9
CC1CN(C(=O)C2CC2)C(C)CN1C(=O)C1CC1 (configuration not stated)	1.0	-1.4	2.1	-5.6%	-26.9
O=C(c1ccc(S(=O)(=O)Cc2ccccc2F)c([N+](=O)[O-])c1)N1CCCCCC1	-6.2	-5.6	-0.3	-3.7%	.
CC(C)COC(=O)N(C)c1ccc(C(O)(C(F)(F)F)C(F)(F)F)cc1	-7.2	13.1	-17.9	4.6%	-3.7
C/C=C/Cn1cccc(C(=O)Nc2ccc(OC)cc2)c1=O	-7.9	2.5	-3.0	-2.9%	.
Cc1ccc(N(CC(=O)NCC2CCCO2)C(=O)CCC(=O)Nc2cc(C)on2)cc1 (configuration not stated)	1.6	.	0.6	.	.
COc1ccc(C)cc1NC(=O)c1ccccc1NS(=O)(=O)c1cccc2cccnc12	-1.2	3.2	-3.4	.	-16.4
Cc1ccc(C(=O)O/N=C(\N)Cc2ccc([N+](=O)[O-])cc2)c(Cl)c1	16.3	.	-0.3	5.3%	.
